Source: PubChem (several laboratories)
ALR H2O2 inh: human ALR oxidase inhibition via reduced H2O2; P55789; purified ALR, DTT oxidation, H2O2 HRP-luminol luminescence; inhibition, % (test concentration not listed); 290,000 tested, 3.8% active; AID 485317;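 active = mean and each replicate at 75% or more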;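 note: stock transfer was 7.5 nL into about 7.5 µL; 0% = neutral wells and 100% = wells with inactivated enzyme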
Target sequence (P55789 whole entry, looked up): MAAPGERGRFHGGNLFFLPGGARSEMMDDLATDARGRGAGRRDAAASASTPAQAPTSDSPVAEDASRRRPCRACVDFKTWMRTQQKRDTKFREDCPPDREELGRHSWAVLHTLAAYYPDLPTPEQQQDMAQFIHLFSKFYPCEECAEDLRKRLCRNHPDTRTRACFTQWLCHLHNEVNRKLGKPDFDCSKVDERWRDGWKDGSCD
HNF4A DNA FP: change in binding of human HNF4 alpha to DNA; P41235; HNF4a-FITC DNA binding, fluorescence polarization, 1 h; activity change, % at 10 µM; 360,000 tested, 0.3% active; in the data active = activity change above about 30%, passing the limit was not always enough;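 note: controls were the assay level and a saturating level of protein; the project sought stronger binding though the title names inhibitors; some compounds called inactive have numbers as strong as hits; positive values seem to mean higher polarization but the record does not say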
LANA-H2B inh: blocks KSHV LANA binding to histone H2A/H2B. AID 2629. 320,000 tested, 0.6% active. cell-free LANA-H2A/H2B peptide, fluorescence polarization. Q9QR71. inhibition, % (concentration not given with the values); in the data active = inhibition mostly above about 10%, no sharp cut-off; inactive = mostly below about 6.7%;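 note: stock transfer was 7.5 nL into about 10 µL; 0% = median of vehicle wells and 100% = median of positive control wells; one replicate is shown; the record names a cut of 25% in any replicate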
Beta2AR agonist: human beta-2 adrenergic receptor agonism by FAP; P07550; Am2.2-beta2AR cells, FAP receptor internalization, flow cytometry; reference of the scale not given here; response, % (concentration not given with the values); 340,000 tested, 0.43% active;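 active = response above a set limit, near 3 SD of response in nonfluorescent compounds, cut at about 42% in these data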;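 note: stock transfer was 100 nL into about 11 µL; a reference agonist was the positive control; negative values mostly stem from fluorescent compounds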
FGF22 binding: shifts melting point of recombinant human FGF22. recombinant FGF22 thermal shift, SYPRO orange fluorescence; percent of sucrose octasulfate shift, DMSO zero. 340,000 tested, 1.5% active. calls only at 9.99 µM;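 active = melting point raised past a set limit in the mean and every replicate; three in four hits are not shown here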
Target sequence (Q9HCT0 whole entry, looked up): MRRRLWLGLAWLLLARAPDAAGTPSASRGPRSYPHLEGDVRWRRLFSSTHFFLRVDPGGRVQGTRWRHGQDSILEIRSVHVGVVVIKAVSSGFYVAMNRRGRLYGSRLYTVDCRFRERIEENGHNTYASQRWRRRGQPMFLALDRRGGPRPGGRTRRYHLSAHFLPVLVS
Ecoli growth: blocks Escherichia coli growth; OD600, 23 h; stronger effect = lower value; OD600 absorbance (test concentration not listed); 330,000 tested, 0.21% active;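 active = OD600 absorbance below the run mean of sample wells minus 3.6 SD, in any replicate, cut at about 0.56 in these data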;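 note: stock transfer was 300 nL into about 60 µL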
UCH37 DUB inh: blocks the human deubiquitinase UCH37; purified proteasome/UCH37, Ub-AMC cleavage fluorescence; AID 588478; 330,000 tested, 0.33% active; inhibition, % (concentration not given with the values); Q9Y5K5;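 active = mean of two replicates above 20%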;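 note: 0% = compound-free wells with enzyme and 100% = wells lacking proteasome; stock transfer was 100 nL into about 20 µL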
Target sequence (Q9Y5K5 whole entry, looked up): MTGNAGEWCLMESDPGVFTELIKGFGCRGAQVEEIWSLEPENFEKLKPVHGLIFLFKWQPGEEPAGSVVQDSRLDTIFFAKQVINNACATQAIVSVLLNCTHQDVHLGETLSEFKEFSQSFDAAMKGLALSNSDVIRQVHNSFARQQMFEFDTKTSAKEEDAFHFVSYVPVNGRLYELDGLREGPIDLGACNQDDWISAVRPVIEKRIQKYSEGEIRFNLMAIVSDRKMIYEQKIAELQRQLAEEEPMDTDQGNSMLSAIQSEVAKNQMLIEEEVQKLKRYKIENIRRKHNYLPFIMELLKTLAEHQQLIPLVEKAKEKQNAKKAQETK
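Material: human UCH37 enzyme supplied as purified proteasome complex. Measure: % inhibition of Ub-AMC cleavage fluorescence. Medium: pH 7.4 Tris-HCl (50 mM) with ovalbumin, ATP-MgCl2, DTT. Times: 30 min preincubation with enzyme, 25 min cleavage at room temperature. Detection: AMC fluorescence intensity at 355/460 nm.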
* hit, by the source's call; i = inactive; · = no result given; & = joins results of further samples.

SMILES	Ecoli growth	ALR H2O2 inh	UCH37 DUB inh	FGF22 binding	Beta2AR agonist	LANA-H2B inh	HNF4A DNA FP
N=c1c2c3c(sc2nc2n1CCCCC2)CCCC3	0.738	-6.2	-2.4	·	0.7	-3.4	-2.4
CNC(=O)CCn1nc(-c2ccccc2)c2ccccc2c1=O	0.71	-3.4	3.7	·	-6.7	-0.3	-4.2
Cc1cccc(NC(=O)CCNC(=O)c2ccccc2)c1	0.637	-1.9	2.1	i	0.7	4.3	-0.7
CCOc1ccccc1N1CCN(C(=O)CNC(=O)c2sc3ccccc3c2Cl)CC1	0.711	1.1	1.4	i	-9.3	1.7	1.8
COc1ccc(N=C2SC(CC(=O)Nc3ccc(F)cc3)C(=O)N2Cc2ccco2)cc1 (centres undefined)	0.72	·	4.8	·	-4.5	4.0	-0.8
Cc1sc2ncnc(N3CCC(C(=O)Nc4ccc(Br)cc4Br)CC3)c2c1C	·	1.1	·	i	4.7	1.2	0.8
O=C(NC1CCC1)C1CCC(=O)N(Cc2cccc(F)c2)C1 (centres undefined)	0.726	-14.4	2.1	i	10.4	37.6*	-0.8
COc1cc2c(C#CCCCO)c(-c3ccsc3)oc(=O)c2cc1OC	0.719	-10.6	-2.9	i	8.2	-2.0	3.7
CCCCCn1c(=O)[nH]c2cc(C(=O)NCCCN3CCCCC3C)ccc2c1=O (centres undefined)	0.678	1.8	-16.8	i	7.4	-2.7	0.6
O=C(CO/N=C/c1ccc(OC(F)F)cc1)NCc1cccs1	·	5.4	·	·	-4.0	2.8	2.9
CCOC(=O)/C(=C\c1cccnc1)C(=O)c1cc(C(C)=O)c(Nc2ccccc2)s1	0.737	8.7	-5.3	·	103.8*	-5.2	2.0
O=C(COC(=O)c1sc2cc(Cl)ccc2c1Cl)Nc1ncc(Cl)cc1Cl	0.666	-1.8	4.3	i	·	4.9	·
Cc1nn(C)c(C)c1NC(=O)CSc1nc(-c2ccccc2Cl)nc2c1cnn2-c1ccccc1	0.701	-8.1	-0.6	·	4.8	-0.3	6.2
CCOc1ccc2nc(NC(=O)CSc3nc4c(c(=O)n(C)c(=O)n4C)n3C(C)C)sc2c1	0.638	-7.2	5.7	·	7.6	-1.2	-0.9
Cc1cc(NC(=O)C(C)SCC(=O)Nc2cccc(S(=O)(=O)N3CCCCCC3)c2)no1 (centres undefined)	·	·	·	i	1.3	·	-1.5
Cc1ccc2c(c1)N(CC(=O)N1CCCCC1)C(=O)C(C)O2 (centres undefined)	0.712	1.0	2.2	i	-5.0	6.1	-2.6
Cc1ccc(NC(=O)CN(c2ccc(Cl)cc2)S(=O)(=O)c2cc([N+](=O)[O-])ccc2Cl)cc1	0.724	-3.3	4.4	i	-13.5	-8.8	2.0
Cc1cccc(S(=O)(=O)Nc2nc3ccccc3nc2NCc2ccco2)c1	0.679	4.6	-29.0	·	-1.3	-2.5	4.3
COc1cc(OC)cc(-c2c(-c3ccc(F)cc3)c3cc(-c4cccc5[nH]ccc45)ccc3n2C)c1	0.748	1.4	-15.1	i	6.3	-1.5	5.6
COCCNC(=O)CNC(=S)N(CCCN1CCOCC1)Cc1cccs1	0.715	-3.5	2.8	·	4.2	-2.2	-1.8
Cc1ccc(C)c(OCC(=O)Nc2nonc2NC(=O)COc2cc(C)ccc2C)c1	0.72	14.5	6.4	·	3.4	0.3	-0.1
CC(=O)Nc1ccc2nc(NC(=O)c3cccs3)sc2c1	0.712	-5.0	-27.3	i	-1.1	3.8	2.6
CC(C)C[C@@H](CN1C(N)=NC[C@@H]1C)NC(=O)CC12CC3CC(CC(C3)C1)C2	·	-0.5	3.7	i	-2.6	2.4	-2.9
CCCc1nc(N)c(C#N)c(N)c1C#N	0.68	-14.7	0.5	·	4.7	0.2	0.1
Cc1cc(C)c(S(=O)(=O)Nc2nnc(C(C)C)s2)c(C)c1	0.698	2.1	6.0	i	0.9	-2.5	0.9
CCOC(=O)C1CCCN(C(=O)COc2ccc(C(=O)c3ccc(F)cc3)cc2)C1 (centres undefined)	0.649	·	4.6	i	9.2	4.8	3.8
CS(=O)(=O)c1nncn1-c1ccccc1	0.696	-10.5	-1.1	·	12.7	-3.9	2.2
CN(CC(=O)Nc1cccc2ccccc12)C(=O)c1ccc(F)cc1F	0.662	-5.7	2.7	i	7.2	1.2	5.2
COc1cccc(C(=O)NCC(=O)N2CCC3(CC2)NCCc2[nH]cnc23)c1	0.68	-3.8	3.3	i	4.1	-1.5	3.9
C=CCn1c(=O)c2ccc(C(=O)NCc3ccccc3)cc2n(Cc2ccc(Cl)cc2)c1=O	0.686	-3.1	0.9	i	13.7	0.0	3.6
COC(=O)c1cc(C(C)=O)c(C)[nH]c1=O	0.699	4.1	2.1	i	4.4	-6.1	-1.5
CC(C)CNC(=O)CC(c1ccccc1)c1c(O)ccc2ccccc12 (centres undefined)	0.725	-3.4	-2.3	·	8.3	-4.1	0.6
CC(C)=CCC(C)(C)CNC(=O)NC1CCCCC1	0.698	·	1.5	·	-3.8	4.8	3.0
COCCOC1CCN(C(=O)c2cc(COc3ccc(-n4cncn4)cc3)on2)CC1	0.701	-1.6	4.0	i	-11.0	-0.6	-2.7
COc1ccc(C(=O)n2nc(-c3ccc(OC)cc3)nc2N)cc1	·	-1.0	·	i	-4.9	-2.3	-1.4
CCC(=O)Nc1nc(C)c(C(=O)N2CCCCC2)s1	0.669	-6.6	1.3	i	1.6	-9.8	2.2
O=C(CCNS(=O)(=O)c1ccc(Br)cc1)N1CCN(c2ccccc2O)CC1	0.7	·	3.8	i	-2.4	·	-1.2
Nn1c(SCC(=O)N2CCc3ccccc3C2)nnc1-c1cccs1	0.721	-12.1	-3.5	·	-6.1	5.4	5.6
O=C(CCCCCN1C(=O)c2ccccc2C1=O)Nc1ccc(F)cc1	0.677	-0.4	0.9	·	5.8	-0.9	-0.5
O=C(NCCc1ccccc1)C1CCCN(c2nc3ccccc3s2)C1 (centres undefined)	0.657	1.7	2.0	i	0.3	-1.1	0.2
COc1ccc(Nc2nc(C(=O)N3CCc4cc(OC)c(OC)cc4C3)cs2)cc1	0.7	-2.0	1.7	i	24.6	-1.1	-0.4
COc1cc(C(=O)OCC(=O)N(C)C)cc(NC(=O)c2ccco2)c1OC	0.682	0.8	4.0	·	-11.8	3.3	-5.2
CCN(c1ccccc1)S(=O)(=O)c1ccc(C(=O)Nc2nccs2)cc1	0.747	-6.4	1.8	·	12.3	-1.7	-0.8
CC(=O)Nc1ccc(S(=O)(=O)N2CCN(S(=O)(=O)c3ccc(F)c(F)c3F)CC2)cc1	0.676	·	3.1	i	1.4	-0.5	0.0
O=C(CN1CCOCC1)Nc1ccccc1Cl	0.685	0.2	3.7	·	-2.5	8.0	2.6
c1cnc2ccc(C(c3nnnn3C3CCCCC3)N3CCN4CCCC4C3)cc2c1 (centres undefined)	0.71	-5.2	2.4	·	-3.1	-2.9	0.2
O=C(C[n+]1cc(-c2ccc(Cl)c(Cl)c2)n2c1CCC2)OCc1ccccc1	0.634	-20.2	6.4	i	-4.9	7.2	0.1
CN(CC(=O)Nc1ccccc1Br)C(=O)c1ccccc1Cc1ccccc1	0.729	-5.0	4.5	i	-3.7	-0.8	-0.6
O=C(CN1CCN(S(=O)(=O)c2ccc(Cl)c(Cl)c2)CC1)N1CCCC1	0.683	-1.4	1.7	i	1.5	0.6	0.5
Cc1ccc(C)c(N2CCN(C(=O)c3ccc(N4CCOCC4)c([N+](=O)[O-])c3)CC2)c1	0.686	·	1.8	i	3.4	-1.4	4.0
CCn1c(/C=C/c2c(C)[nH]c3ccccc23)nc2ccccc2c1=O	0.671	·	-118.8	i	5.0	·	21.9
O=C(O)c1ccc(NS(=O)(=O)c2ccc3c(c2)OCCCO3)cc1	0.682	-11.1	-0.7	·	5.2	2.3	-0.6
CCc1cc(C(N)=S)ccn1	0.66&0.726	·	1.3&-0.4	i	-9.7&2.9	-17.1	-2.0&2.0
Cc1n[nH]c(C)c1S(=O)(=O)N1CCc2ccccc2C1	0.698	-5.7	4.4	i	-3.6	-3.0	-2.0
Cc1ccc(N2CN=c3s/c(=C\c4ccccn4)c(=O)n3C2)cc1	·	-2.2	·	·	-13.9	-2.6	2.0
O=C(O)c1ccc(-c2cccc(Cl)c2)o1	0.705	-4.1	3.6	·	-3.5	1.3	5.2
COc1ccc(OC)c(CNC(=O)C2CCCN(c3ncnc4c3nc3n4CCCCC3)C2)c1 (centres undefined)	0.68	-3.8	5.0	i	-6.8	6.5	-0.9
CCOc1ccc(N(CC(=O)N2CCC(Cc3ccccc3)CC2)S(C)(=O)=O)cc1	0.659	·	-0.2	i	-10.4	-0.6	-1.1
O=C(Nc1ccccc1)Nc1ccccc1	·	·	·	i	-2.5	·	0.1
COC(=O)c1c(C)[nH]c(C(=O)OCC(=O)NC(C)(C)C)c1C	0.707	-8.9	0.9	·	7.7	2.7	-3.0

Later entries
SMILES	Ecoli growth	ALR H2O2 inh	UCH37 DUB inh	FGF22 binding	Beta2AR agonist	LANA-H2B inh	HNF4A DNA FP
O=C(NCCSc1c(-c2ccccc2)[nH]c2ccccc12)c1cc2ccccc2oc1=O	0.762	-2.4	1.7	i	9.9	4.9	-1.4
Cc1ccccc1OC(C)C(=O)NCCCN1CCOCC1 (centres undefined)	0.673	-3.4	1.2	i	-3.2	-0.5	2.3
CN1CCc2c(sc(NC(=O)C3COc4ccccc4O3)c2C(N)=O)C1 (centres undefined)	0.618	-1.8	1.7	i	-5.3	-21.5	0.2
O=C(c1cnc2n(c1=O)CCS2)N1CCCc2ccccc21	0.721	-6.6	6.6	i	-3.1	2.7	-0.3
CCC(C)NC(=O)Nc1ccc(C)cc1C (centres undefined)	0.731	8.8	1.8	i	-7.0	1.5	-1.3
CC(=O)N1CCN(C(=S)c2ccc(-c3ccc(Cl)cc3)o2)CC1	0.718	-1.2	8.7	·	-14.2	-5.6	3.9
Cc1ccc(-n2c([S-])c(C(=O)NC(C)c3ccccc3)[n+]3ccccc23)cc1 (centres undefined)	0.687	5.7	-3.6	i	-1.5	-0.7	0.2
OC(C#Cc1ccccc1)(c1ccccc1)c1ccccc1	0.625	·	2.3	i	2.6	·	-0.7
CCc1cc(=O)oc2c(CNCc3ccccc3F)c(O)c(Cl)cc12	0.685	-3.1	i	i	-0.1	-2.6	4.5
CC1(C)CC2(CCO1)OC(=O)CC2C(=O)Nc1ccc(Cl)cc1[N+](=O)[O-] (centres undefined)	0.648	-7.9	3.1	i	-3.1	-2.9	4.5
Cc1c(C)c(C)c(S(=O)(=O)NCCc2ccccn2)c(C)c1C	0.682	3.5	4.6	i	-2.7	0.4	0.2
O=C(NC(Nc1cc(C(F)(F)F)ccc1Cl)C(=O)c1ccccc1)c1ccccc1 (centres undefined)	·	-5.3	·	·	4.1	1.3	0.5
Cc1nc2ccccc2c2c1C(=O)N(Cc1cccnc1)C2=O	0.675	-8.1	7.1	·	-3.7	-1.3	1.2
Cc1ccc(NS(=O)(=O)c2ccc(C(=O)NCCCN3CCCC3=O)cc2)cc1C	0.665	0.9	0.2	i	4.5	1.0	-1.0
COCCNC(=O)CSc1nc2cc3c(cc2c(=O)n1CCCC(=O)NCc1ccc(OC)cc1)OCO3	0.742	-12.3	0.0	i	5.1	-2.3	-0.8
O=C(Cn1cnc2c(NCc3ccccc3)ncnc21)NCCc1cc2ccccc2[nH]1	0.666	·	2.3	i	3.9	·	3.0
Cc1ccccc1NCC(=O)N/N=C\c1ccc([N+](=O)[O-])s1	·	-9.5	·	·	-3.0	-4.8	1.4
Cc1ncn2cc(-c3ccc(Cl)cc3Cl)[nH]c(=O)c12	0.695	-10.3	-2.5	i	-15.4	-0.2	1.8

These rows are one share of the data; the hit share may differ from the screen's.
